From PubChem BioAssay
MITF inhib = inhibitors of MITF; TRPM1 promoter luciferase, luminescence, 24 h; inhibition, % (no concentration beside the values); 37,000 compounds, 0.28% hits;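 active means most replicates at 85% or more, or half of them and the mean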;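 further: human melanocyte line stably carrying TRPM1 promoter luciferase reporter; 0% = vehicle wells and 100% = a positive control; the first replicate is given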
An asterisk follows results filed as active. Some of the compounds tested; rates above refer to the full screens.

Start of the listing, in advance (6 entries):
mol: COc1ccc(OC)c(NC(=O)c2ccc(Cl)c(S(=O)(=O)Nc3ccc(C)cc3C)c2)c1
  MITF inhib: 2

mol: COc1cc(OC)cc(-c2nnc(SCC(=O)Nc3ccc(F)cc3)o2)c1
  MITF inhib: -55

mol: Cc1cccc(-n2c(SCC(N)=O)nnc2-c2ccncc2)c1C
  MITF inhib: -8

mol: CCN(CC(=O)Nc1ccccc1C)S(=O)(=O)c1ccc(Br)cc1
  MITF inhib: 15

mol: CC(=O)c1cccc(N(CC(=O)Nc2ccc(C)cc2)S(C)(=O)=O)c1
  MITF inhib: -10

mol: Cc1nnc(SCC(=O)n2c3c(c4ccccc42)CCCC3)n1C
  MITF inhib: -25

The whole of this part (from the top)
mol: COc1ccc(OC)c(NC(=O)c2ccc(Cl)c(S(=O)(=O)Nc3ccc(C)cc3C)c2)c1
  MITF inhib: 2

mol: COc1cc(OC)cc(-c2nnc(SCC(=O)Nc3ccc(F)cc3)o2)c1
  MITF inhib: -55

mol: Cc1cccc(-n2c(SCC(N)=O)nnc2-c2ccncc2)c1C
  MITF inhib: -8

mol: CCN(CC(=O)Nc1ccccc1C)S(=O)(=O)c1ccc(Br)cc1
  MITF inhib: 15

mol: CC(=O)c1cccc(N(CC(=O)Nc2ccc(C)cc2)S(C)(=O)=O)c1
  MITF inhib: -10

mol: Cc1nnc(SCC(=O)n2c3c(c4ccccc42)CCCC3)n1C
  MITF inhib: -25

mol: O=C(CSc1ccccn1)Nc1cccc(F)c1
  MITF inhib: -50

mol: COC(=O)C(C)N(c1ccc(OC)cc1)S(C)(=O)=O (stereo not given)
  MITF inhib: 18

mol: O=C1C(=O)N(CCN2CCOCC2)C(c2ccccn2)C1C(=O)c1cccs1 (stereo not given)
  MITF inhib: -13

mol: COc1ccc(C(=O)Nc2ccccc2C(=O)NCc2cccnc2)cc1
  MITF inhib: 3

mol: CC(Oc1ccc(Cl)cc1Cl)C(=O)NC(=S)Nc1sc2c(c1C#N)CCCC2 (stereo not given)
  MITF inhib: 29

mol: CCOC(=O)c1ccc(COC(=O)c2cc3ccccc3oc2=O)o1
  MITF inhib: -7

mol: O=C(O)CN(CC(=O)O)S(=O)(=O)c1ccc(Cl)cc1
  MITF inhib: 11

mol: COC(=O)CN(c1ccccc1)S(=O)(=O)c1ccc(F)cc1
  MITF inhib: -18

mol: Cc1c(C(=O)C2C(=O)C(=O)N(CCN3CCOCC3)C2c2ccccn2)cnn1-c1ccccc1 (stereo not given)
  MITF inhib: -14

7 compounds already listed, ordered by length of the SMILES, ascending.
mol: O=C(CSc1ccccn1)Nc1cccc(F)c1
  MITF inhib: -50

mol: COC(=O)C(C)N(c1ccc(OC)cc1)S(C)(=O)=O (stereo not given)
  MITF inhib: 18

mol: O=C(O)CN(CC(=O)O)S(=O)(=O)c1ccc(Cl)cc1
  MITF inhib: 11

mol: Cc1cccc(-n2c(SCC(N)=O)nnc2-c2ccncc2)c1C
  MITF inhib: -8

mol: COc1ccc(C(=O)Nc2ccccc2C(=O)NCc2cccnc2)cc1
  MITF inhib: 3

mol: COc1ccc(OC)c(NC(=O)c2ccc(Cl)c(S(=O)(=O)Nc3ccc(C)cc3C)c2)c1
  MITF inhib: 2

mol: Cc1c(C(=O)C2C(=O)C(=O)N(CCN3CCOCC3)C2c2ccccn2)cnn1-c1ccccc1 (stereo not given)
  MITF inhib: -14

Going on with the list:
mol: O=C(CSc1nc2ccccc2c(=O)[nH]1)Nc1ccc(Br)cc1F
  MITF inhib: 15

mol: CS(=O)(=O)N(CC(=O)Nc1ccccc1C(F)(F)F)c1ccc2c(c1)OCCO2
  MITF inhib: -6

mol: COc1ccccc1NC(=O)Cn1nnc2sc3c(c2c1=O)CCC(C)C3 (stereo not given)
  MITF inhib: -1

mol: COc1ccc(NC(=O)CSc2nc3ccccc3c(=O)[nH]2)cc1Cl
  MITF inhib: -15

mol: CC(C)Nc1nc(SCC(N)=O)nc(N2CCOCC2)n1
  MITF inhib: -4

mol: CC(C)c1ccccc1NC(=O)CSc1nnnn1-c1ccccc1
  MITF inhib: 1

mol: c1ccc(-c2nn3c(Cn4cnc5ccccc54)nnc3s2)nc1
  MITF inhib: 6

mol: Cc1ccc(S(=O)(=O)N(CC(=O)O)c2ccccc2C)cc1
  MITF inhib: -2

mol: CC(=O)Nc1ccc(NC(=O)C(NC(=O)c2ccco2)C(C)C)cc1 (stereo not given)
  MITF inhib: 0

mol: COc1cccc(NC(=O)CNC(=O)c2ccccc2)c1
  MITF inhib: -81

mol: CCOC(=O)c1c(NC(=O)CSc2nc(C)cc(C(F)(F)F)c2C#N)sc2c1CCCC2
  MITF inhib: 9

mol: NC(=O)CSc1nnc(-c2ccccc2F)n1-c1ccccc1
  MITF inhib: 4

mol: CCn1c2ccccc2n2c(SCCOc3ccc(C)cc3)nnc12
  MITF inhib: -9

mol: O=C(NCc1cccnc1)c1cccnc1-c1nc2ccccc2s1
  MITF inhib: 7

mol: O=C(CN1CCN(C2CCCC2)CC1)Nc1ccc([N+](=O)[O-])cc1C(=O)Nc1ccccc1F
  MITF inhib: -3

mol: Cc1cc(C)c(NC(=O)CSc2nnc(-c3cccnc3)s2)c([N+](=O)[O-])c1
  MITF inhib: 25

mol: CCN(CC)C(=O)c1ccc(Nc2nnc(-c3ccc(C)c(S(N)(=O)=O)c3)c3ccccc23)cc1
  MITF inhib: 1

mol: CCCc1nnc(NC(=O)c2nc(SC)ncc2Cl)s1
  MITF inhib: 16

mol: Cc1ccc(S(=O)(=O)N2C(=O)CCC2C(=O)Nc2cccc(Br)c2)cc1 (stereo not given)
  MITF inhib: 2

mol: CC(=O)NCCOc1nc(N2CCCCC2)nc(N2CCOCC2)n1
  MITF inhib: -4

mol: CC(C)OC(=O)CSc1nc2c(cc1C#N)CCCCC2
  MITF inhib: -78

mol: COC(=O)c1cc(OC)c(OC)cc1NC(=O)C(C)Oc1ccccc1C (stereo not given)
  MITF inhib: 35

mol: NC(=O)CSc1nc2sc3c(c2c(=O)n1Cc1ccccc1)CCCC3
  MITF inhib: 12

mol: O=C(COc1ccc([N+](=O)[O-])cc1)Nc1ccccc1N1CCN(C(=O)c2ccc(Cl)cc2)CC1
  MITF inhib: -6

mol: COc1ccc(S(=O)(=O)N(C)CC(=O)Nc2ccccc2SC)cc1C
  MITF inhib: -10

mol: CN(CC(N)=O)S(=O)(=O)c1ccc(F)cc1
  MITF inhib: -9

mol: Cc1ccc(NC(=O)CSc2nc(-c3ccccc3)c(-c3ccccc3)[nH]2)c(C)c1
  MITF inhib: 11

mol: O=C(CCN1C(=O)c2ccccc2C1=O)Nc1ccc(-c2nc3ccccc3o2)cc1
  MITF inhib: -32

mol: O=C(CNC(=O)c1ccco1)Nc1ccc(F)cc1
  MITF inhib: -38

mol: COc1ccccc1CNC(=O)c1cc(-c2ccncc2)nc2c(Cl)cccc12
  MITF inhib: -24

mol: Cc1ccc(C(=O)Cn2c(NCCO)nc3ccccc32)cc1
  MITF inhib: -11

mol: NC(=O)CN(c1ccccc1)S(=O)(=O)c1ccc(F)cc1
  MITF inhib: -10

mol: COc1ccc(-c2nnc(SCC(=O)O)n2-c2cccc(C(F)(F)F)c2)cc1OC
  MITF inhib: -22

mol: COc1ccc(-c2noc(CSc3nnc(-c4ccco4)n3-c3ccccc3)n2)cc1OC
  MITF inhib: 7

mol: COc1ccc(NC(=O)COc2c(Cl)c(C)c(Cl)c(C)c2Cl)cc1[N+](=O)[O-]
  MITF inhib: 8

mol: COc1c(S(=O)(=O)NCC2CCCO2)ccc(Cl)c1Cl (stereo not given)
  MITF inhib: -17

mol: CCc1c(C)sc(NC(=S)Nc2cc(OC)c(Cl)cc2OC)c1C(=O)OC
  MITF inhib: -9

mol: COc1ccc(Cl)cc1Nc1nc(N)nc(-c2cc3ccccc3o2)n1
  MITF inhib: 28

mol: O=C1c2oc3ccccc3c(=O)c2C(c2cccc(Oc3ccccc3)c2)N1CCCO (stereo not given)
  MITF inhib: 7

mol: CC(=O)Nc1ccc(Br)cc1-c1nc2ccccc2nc1OCc1ccc(Cl)cc1
  MITF inhib: -4

mol: CCCc1cc(=O)n2[nH]c(NCc3cccc([N+](=O)[O-])c3)nc2n1
  MITF inhib: -13

mol: COC(=O)c1ccccc1NC(=O)c1ccc(COc2ccccc2)o1
  MITF inhib: -44

mol: CCn1c(SCC(=O)N2CCc3ccccc32)nnc1-c1ccncc1
  MITF inhib: -6

mol: CCn1c(SCC(=O)Nc2cccc(F)c2)nnc1-c1ccc(Cl)cc1Cl
  MITF inhib: 31

mol: O=C(Nc1sc2c(c1C(=O)NCc1ccco1)CCCC2)c1sc2ccccc2c1Cl
  MITF inhib: -18

mol: CSc1nc(N)nc(SCCS(=O)(=O)c2ccc(Cl)cc2)c1C#N
  MITF inhib: -15

mol: CS(=O)(=O)N(CC(=O)NC1CC1)c1cccc(C(F)(F)F)c1
  MITF inhib: -17

mol: Cc1ccc(-n2c(SCC(=O)c3ccccc3)nnc2-c2ccncc2)cc1C
  MITF inhib: -36

mol: O=C(CSc1nnc(-c2ccccc2O)n1-c1ccccc1)Nc1ccc(Oc2ccccc2)cc1
  MITF inhib: 40

mol: O=C(COc1ccc([N+](=O)[O-])cc1)Nc1ccc2oc(-c3ccccc3Br)nc2c1
  MITF inhib: -16

mol: O=C(NCc1ccco1)c1cccc(S(=O)(=O)N2CCCCC2)c1
  MITF inhib: -10

mol: Cc1ccccc1NC(=O)CSc1nc2cc3ccccc3cc2[nH]1
  MITF inhib: -3

mol: Cc1cc(N(CC(=O)Nc2ccc(C(F)(F)F)cc2)S(C)(=O)=O)ccc1Br
  MITF inhib: -4

mol: CC(=O)c1ccc(N2CCN(C(=S)Nc3ccc(S(=O)(=O)Nc4ncccn4)cc3)CC2)cc1
  MITF inhib: -10

mol: Cc1ccnc(SCC(=O)Nc2sc3c(c2C#N)CCC(C(C)(C)C)C3)n1 (stereo not given)
  MITF inhib: 4

mol: COc1ccc(S(=O)(=O)n2cc(-c3ccc(C)cc3)c(N)n2)c(OC)c1
  MITF inhib: 17

mol: COc1ccc(-c2ccc(C#N)c(SCC(=O)Nc3cccc(C(F)(F)F)c3)n2)cc1
  MITF inhib: 3

mol: Cc1cc(C)nc(NS(=O)(=O)c2ccc(NC(=S)NC(=O)c3ccccc3)cc2)n1
  MITF inhib: 11

mol: O=C(CCc1nc2ccccc2[nH]1)Nc1cccc(C(F)(F)F)c1
  MITF inhib: -4

mol: Cc1cc(C)c(C#N)c(SCC(=O)Nc2ccc(C(N)=O)cc2)n1
  MITF inhib: -65

mol: O=[N+]([O-])c1ccc2nc(CSc3nc4ccccc4o3)[nH]c2c1
  MITF inhib: 47

mol: COc1ccc(NC(=O)COc2ccccc2)cc1NC(=O)c1ccco1
  MITF inhib: -22

mol: COc1ccc(C)cc1S(=O)(=O)N1CCC(C(=O)Nc2cccc(SC)c2)CC1
  MITF inhib: 8

mol: COc1ccc(NC(=O)Cn2c(=O)n(-c3ccc(Cl)cc3)c(=O)c3c4c(sc32)CCCC4)cc1
  MITF inhib: -12

mol: CCOc1c(OC)cccc1C1C(C(=O)Nc2ccccc2OC)=C(C)Nc2ncnn21 (stereo not given)
  MITF inhib: 13

mol: Cn1c(OCc2cccnc2)nc2c1c(=O)n(Cc1ccc(Cl)c(Cl)c1)c(=O)n2C
  MITF inhib: 58

mol: COC(=O)CSc1nc2sc3c(c2c(=O)n1Cc1ccccc1)CCCC3
  MITF inhib: -4

mol: CN(C)CCNc1oc(COc2ccc(Cl)cc2)nc1C#N
  MITF inhib: -6

mol: Cc1cc(C)c2nc(-c3ccccn3)cc(C(=O)Nc3cccc(Cn4cccn4)c3)c2c1
  MITF inhib: 55

mol: O=C(CSc1nc2cc3ccccc3cc2[nH]1)Nc1cccc(C(F)(F)F)c1
  MITF inhib: 9

mol: O=C(NCC1CCCO1)c1ccccc1S(=O)(=O)c1ccc([N+](=O)[O-])cc1 (stereo not given)
  MITF inhib: -5

mol: COc1ccc(Nc2nc(N)nc(CSCCO)n2)cc1
  MITF inhib: -43

mol: CC(C)C(=O)Nc1sc2c(c1C(=O)Nc1cccnc1)CCCC2
  MITF inhib: 1

mol: O=C(NCc1ccco1)c1cc(-c2cccnc2)nc2ccc(Br)cc12
  MITF inhib: -30

mol: COc1ccccc1NC(=O)C1CCCN(S(=O)(=O)c2ccc(Br)cc2)C1 (stereo not given)
  MITF inhib: -6

mol: NC(=O)CSc1nc2c(c(=O)n1Cc1ccccc1)C1(CCCC1)Cc1ccccc1-2
  MITF inhib: 7

mol: CCCc1cc(=O)[nH]c(SCC(=O)Nc2cc(Cl)ccc2Cl)n1
  MITF inhib: 17

mol: COc1ccc(NC(=O)CCC(=O)O)cc1
  MITF inhib: 5

mol: O=C(Nc1cccc(C(F)(F)F)c1)c1ccc(NCc2ccco2)c([N+](=O)[O-])c1
  MITF inhib: 26

mol: COc1ccccc1NC(=O)Cn1nc([N+](=O)[O-])c(Br)c1C
  MITF inhib: 34

mol: N#Cc1c(NC(=O)Cn2cnc3scc(-c4ccccc4)c3c2=O)sc2c1CCC2
  MITF inhib: 27

mol: CCN(C(=O)CSc1nc2sc(C)c(C)c2c(=O)n1-c1ccccc1)c1ccccc1
  MITF inhib: -6

mol: COC(=O)c1ccc(C(=O)OC)c(NC(=O)c2cnn3cccnc23)c1
  MITF inhib: 5

mol: Cc1c(Br)c(C(F)(F)F)nn1CC(=O)Nc1cc(Oc2cccnc2)cc([N+](=O)[O-])c1
  MITF inhib: 1

mol: O=C(COc1ccccc1)Nc1ccc2oc(-c3ccccc3)nc2c1
  MITF inhib: -9

mol: Cc1ccc(-c2ccc(CCC(=O)O)n2-c2ccc(C(N)=O)cc2)cc1
  MITF inhib: -10

mol: O=C(CSc1nnnn1-c1ccccc1)Nc1ccccc1C(=O)c1ccccc1
  MITF inhib: -8

mol: COc1ccc(NC(=O)CSc2nc3ccc([N+](=O)[O-])cc3[nH]2)cc1
  MITF inhib: 16

mol: COc1ccc(-n2nc3cc(C)c(NC(=O)COc4ccc(Cl)cc4Cl)cc3n2)cc1
  MITF inhib: -13

mol: Cc1ccc(C(=O)CC2(O)C(=O)N(Cc3cccc4ccccc34)c3ccccc32)cc1 (stereo not given)
  MITF inhib: 40

mol: Cc1cc(OCC(=O)Nc2ccccc2C(N)=O)ccc1Br
  MITF inhib: -85

mol: Cn1c(=O)c2c(nc(NCC3CCCO3)n2Cc2cccc(Br)c2)n(C)c1=O (stereo not given)
  MITF inhib: 9
